# Compound activity from PubChem.
# PKD1 inh = inhibitors of human PKD1 kinase, biochemical, fluorescence polarization | Serine/threonine-protein kinase D1 (Homo sapiens), Q15139 | PKD1 kinase fluorescence polarization assay | inhibition, %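 (about 10 µM by stock and volumes)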 | 0.056% of 200,000 active;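 active = inhibition of 50% or more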;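 also: controls were vehicle for no effect and a reference inhibitor for full effect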
# Target sequence (Q15139 whole entry, looked up): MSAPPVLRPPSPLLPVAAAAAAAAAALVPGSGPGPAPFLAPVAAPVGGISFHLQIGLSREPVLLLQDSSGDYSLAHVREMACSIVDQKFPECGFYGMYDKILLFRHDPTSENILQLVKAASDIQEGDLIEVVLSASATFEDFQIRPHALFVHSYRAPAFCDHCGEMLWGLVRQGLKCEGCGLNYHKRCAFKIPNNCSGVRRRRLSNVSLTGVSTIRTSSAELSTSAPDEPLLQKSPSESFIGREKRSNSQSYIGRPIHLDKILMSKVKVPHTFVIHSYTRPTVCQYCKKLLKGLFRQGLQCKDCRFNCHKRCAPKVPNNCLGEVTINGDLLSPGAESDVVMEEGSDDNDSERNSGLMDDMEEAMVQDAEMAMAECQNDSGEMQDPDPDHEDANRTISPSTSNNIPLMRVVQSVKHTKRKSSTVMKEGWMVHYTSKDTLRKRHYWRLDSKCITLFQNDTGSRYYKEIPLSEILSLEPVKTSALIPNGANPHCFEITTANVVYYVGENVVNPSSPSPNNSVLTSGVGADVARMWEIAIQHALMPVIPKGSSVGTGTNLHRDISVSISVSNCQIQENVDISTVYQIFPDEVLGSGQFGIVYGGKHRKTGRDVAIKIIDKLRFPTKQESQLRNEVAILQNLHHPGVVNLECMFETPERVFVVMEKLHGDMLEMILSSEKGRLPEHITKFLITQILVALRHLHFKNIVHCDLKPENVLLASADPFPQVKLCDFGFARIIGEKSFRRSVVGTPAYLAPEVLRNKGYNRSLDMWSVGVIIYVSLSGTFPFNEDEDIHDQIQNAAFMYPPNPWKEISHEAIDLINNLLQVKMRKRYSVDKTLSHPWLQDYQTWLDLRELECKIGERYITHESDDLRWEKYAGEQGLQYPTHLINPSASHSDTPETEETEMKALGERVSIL
# HSV augment = enhancers of HSV replication in host cells, fold increase, host cell viability. AID 1956, 2009. 0.005% of 220,000 active. HSV replication augmentation in cells. maximum fold increase;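 active = peak rise of 1.5-fold or more in the series; tested in PC3 cells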;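 also: first round at 10 µM; read as green reporter fluorescence; hits show the peak of a series up to 25 µM; 1 = signal of infected wells without compound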
# RGS16-Gao = modulators of RGS16 binding to Galphao, primary screen, biochemical, human proteins, multiplexed bead flow cytometry. Regulator of G-protein signaling 16 (Homo sapiens) + Guanine nucleotide-binding protein …. bead-based flow cytometry RGS16-Galphao binding, fluorescence; actives lie on both sides. binding response (% of control), % at 10 µM. 0.38% of 220,000 active. AID 1441, 2008;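 active = below 25% or above 175%, edge rows of some plates excepted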;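 also: Galphao activated by GDP with aluminum fluoride before binding; 100% = wells without compound and 0% = beads without RGS; some results beyond the cut were filed as inactive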
# GALR2 agonist = GALR2 receptor agonists, primary screen, cell-based; GALR2-expressing cells, agonist activation read-out; activation, %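 (tested at 5 µM)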; 0.48% of 140,000 active; AID 803, 2007;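 active = above mean plus 3 SD of all compounds, about 5% in these data, not always enough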;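 also: 0% = vehicle buffer wells and 100% = reference agonist at full effect; tested in CHO reporter cells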
# Insulin prom inh = inhibitors of insulin promoter-driven GFP, primary screen, imaging, TRM-6 cells (human fetal islet line), eGFP reporter, cell count; reporter expression induced with tamoxifen; inhibition, % at 2 µM; 0.9% of 130,000 active;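 active = inhibition above the mean plus 3 SD, with well images judged a real hit on visual review, cut at about 60% in these data, passing the limit was not always enough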
# Insulin prom inh cell count = further read-out of Insulin prom inh, marked with its call; normalized cell count, %; measured here: cell count, toxicity; reference of the scale not given here;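 cells exposed to compound for 48 h; stained nuclei by imaging scaled within each plate; lower means fewer cells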
# HSV augment primary fold = further read-out of HSV augment, marked with its call; fold increase; compound at 10 µM; measured here: primary screen fold increase 10 uM; tested in PC3 cells;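 GFP signal in the first replicate; 1 = infected wells without compound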
# Starred values were filed as active, the others as inactive; i = inactive; nt = not tested or not shown; & = joins results of further samples.
SMILES,PKD1 inh,HSV augment,HSV augment primary fold,RGS16-Gao,GALR2 agonist,Insulin prom inh,Insulin prom inh cell count
COc1ccc(C2C(C(=O)Nc3cccnc3)=C(C)Nc3nc(-c4ccco4)nn32)cc1 (centres undefined),-16,i,1,98,-0.3,nt,nt
CCOC(=O)Nc1sc2nc(C)cc(C)c2c1-n1cccc1,-2,i,0.85,100,0.3,-47,102
CC(C)N(Cc1nc(-c2ccc(Cl)cc2)no1)Cc1nccn1C,-4,i,0.85,102,nt,nt,nt
O=C1OC(/C=C/c2ccc(Cl)cc2)=NC/1=C/c1ccco1,-7,i,1,103,0.1,nt,nt
COc1cc(NC(=S)N2CCCCC2C)c(OC)cc1Cl (centres undefined),-4,i,0.96,99,nt,nt,nt
CCc1cc2c(=O)c(-c3cnn(-c4ccccc4)c3)c(C)oc2cc1OCC(=O)Nc1ccc(F)c(F)c1,-4,i,0.81,112,-0.4,0,120
CNS(=O)(=O)c1cccc(C(=O)OCC(=O)Nc2ccccc2F)c1,-1,i,1.1,102,nt,6,131
O=C(Nc1cc(S(=O)(=O)N2CCCCC2)ccc1N1CCCCC1)C1CC1,nt,i,0.96,101,nt,nt,nt
Cc1ccc(NC(=S)NCc2ccco2)c(C)c1,nt,i,0.99,103,nt,nt,nt
CC(=O)c1sc2nc(=O)c(C)nn2c1C,-12,i,0.82,107,-0.5,41,93
CCCCNC(=S)Nc1cccc2cnccc12,-4,i,0.91,99,-0.8,nt,nt
COc1ccc(NC(=O)C2CCN(C(=O)Cc3ccccc3)CC2)c(OC)c1,-3,i,0.95,104,nt,nt,nt
COc1ccc(OC)c(CN2CCN(CCc3ccccc3)C(CCO)C2)c1 (centres undefined),-8,i,1.1,91,nt,nt,nt
S=C(Nc1ccccc1)c1ccccn1,2,i,0.98,96&100,-0.9,7,153
CC(=O)Nc1ccc(S(=O)(=O)Nc2nc3ccccc3nc2Nc2cccc(O)c2)cc1,nt,i,0.75,88,nt,nt,nt
Cc1nc(-c2c(-c3ccc(O)cc3O)noc2C(F)(F)F)cs1,-11,i,0.91,100,-1.7,nt,nt
CC1CN(C(=O)c2ccc3c(c2)OCO3)OC(c2ccccc2)O1 (centres undefined),8,i,1,100,-1.3,-19,100
CCn1cc(C(=O)NCCCN(C)c2ccccc2)c(=O)c2cc(S(=O)(=O)N(C)C)ccc21,-6,i,0.93,102,0.9,nt,nt
Cc1ccc(S(=O)(=O)N(C)C)cc1NC(=S)NC1CCCC(C)C1C (centres undefined),-7,i,0.96,108,-0.6,-57,83
CCOCCOC(=O)C(C)Oc1ccc(Oc2nc(Cl)ccc2Cl)cc1 (centres undefined),2,i,0.97,102,nt,41,137
COc1ccc(NC(=O)c2c(NC(=O)CNCc3ccco3)sc3c2CCC3)cc1,-3,i,1.1,105,-2.1,21,149
Cc1ccccc1OCC(=O)Nc1nnc(-c2ccncc2)s1,nt,i,1,105,nt,nt,nt
CCC1C(=O)N=C(SCC(=O)Nc2ccccc2)NC1=O (centres undefined),-5,i,0.94,104,-0.8,-58,85
O=C(O)c1ccc2c(c1)C(=O)N(c1cccc(-c3nc4ccccc4s3)c1)C2=O,-6,i,0.83,100,nt,nt,nt
CCN(CC)CCOc1ccc(Br)cc1,-12,i,0.91,107,-0.9,24,66

# Next results follow:
SMILES,PKD1 inh,HSV augment,HSV augment primary fold,RGS16-Gao,GALR2 agonist,Insulin prom inh,Insulin prom inh cell count
O=[N+]([O-])c1ccc(N2CCOCC2)cc1SCc1ccco1,-8,i,0.94,96,0.9,-36,85
CCn1cc(C(=O)NCCCN2CC(C)CC(C)C2)c2cc(OC)c(OC)cc2c1=O (centres undefined),-9,i,0.73,121,0.7,42,284
CC(=O)Nc1ccc(NC(=O)c2ccccc2CC[N+](=O)[O-])cc1,-4,i,0.86,100,-2.1,nt,nt
CC1CCN(C(=O)CCNS(=O)(=O)c2ccccc2)CC1,-8,i,0.89,99,-2.1,-8,68
CC(=O)C1=C(c2ccccc2)NC(=O)NC1c1ccccc1OCC(=O)NCc1ccccc1 (centres undefined),-12,i,0.83,73,-2.3,3,103
CCOC(=O)C(C)Sc1nc(C2CC2)cc(C(F)(F)F)c1C#N (centres undefined),-5,i,0.86,84,-0.1,17,94
CN(C)CCSc1nc(N)c2c3c(sc2n1)CN(C)CC3,-1,i,1,98,-1.1,-9,125
Cc1ccc2nc(-c3cccs3)oc(=O)c2c1,-5,i,0.93,108,nt,-13,122
NC(=O)C(CC(=O)O)NC(=O)[C@@H]1CCCCNc2c(I)cc([N+](=O)[O-])cc2C(=O)N[C@@H](CO)C(=O)NCC(=O)N1 (some centres undefined),0,i,0.79,89,-2.0,9,108
CCC(=O)NC(=S)Nc1ccc(NC(=O)c2ccc(OC)cc2)cc1,0,i,0.86,100,1.3,-7,114
COc1ccc(-c2csc3nc(-c4cccnc4)nc(N4CCC(C(N)=O)CC4)c23)cc1OC,-3,i,0.78,95,-0.2,10,96
CCCCNC(=O)CC1S/C(=N/N=C/c2ccc(OC)cc2)NC1=O (centres undefined),0,i,0.91,100,nt,nt,nt
COc1ccc(N2CCN(C(=S)NCc3ccccc3)CC2)cc1,-11,i,0.95,103,nt,nt,nt
Cc1ccc(NC2CC(=O)N(c3cccc([N+](=O)[O-])c3)C2=O)cc1 (centres undefined),-4,i,0.81,102,nt,nt,nt
S=C(NCC1CCCO1)N1CCN(Cc2ccccc2Cl)CC1 (centres undefined),-9,i,0.98,109,nt,nt,nt
CCOC(=O)c1c(NC(=O)COC(=O)Cn2cnc3ccccc32)sc(C)c1C,-12,i,0.94,57,0.4,nt,nt
Oc1ccccc1N1CCN(c2nc(-c3cccs3)nc3ccccc23)CC1,nt,i,0.88,90,nt,nt,nt
CCOC(=O)CCC(=O)Nc1cccc([N+](=O)[O-])c1,1,i,1.1,115,-1.0,-17,94
COC(=O)Cn1cc(/C=C(/C#N)C(=O)N2CCOCC2)c2ccccc21,7,i,0.97,103,nt,nt,nt
O=C(CC1SC(=O)N(Cc2ccc(Cl)cc2)C1=O)Nc1nccs1 (centres undefined),5,i,1.1,102,-0.9,nt,nt
O=C(CSc1nnc(-c2cccc(S(=O)(=O)N3CCOCC3)c2)n1C1CCCCCC1)NCc1ccccc1,4,i,1,95,-1.7,-40,119
COc1nc(N)c(C#N)c(-c2ccc(N(C)CCC#N)cc2)c1C#N,nt,i,0.61,107,nt,nt,nt
CC1CN(C)C(C)C/C1=N/Oc1ccccc1[N+](=O)[O-] (centres undefined),-2,i,0.95,104,nt,nt,nt
O=C(c1ccccn1)C1CCCN(Cc2nc(Cc3cccc(F)c3)no2)C1 (centres undefined),nt,i,0.77,95,nt,nt,nt
OCC1(CCOc2ccccc2)CCN(C2Cc3ccccc3C2)CC1,-3,i,0.95,94,nt,nt,nt

# Part of the list above, with two lines to a compound.
# Second line of a record: PKD1 inh | HSV augment | HSV augment primary fold | RGS16-Gao | GALR2 agonist | Insulin prom inh | Insulin prom inh cell count
> COc1ccc(N2CCN(C(=S)NCc3ccccc3)CC2)cc1
 : -11 | i | 0.95 | 103 | nt | nt | nt
> CC(=O)c1sc2nc(=O)c(C)nn2c1C
 : -12 | i | 0.82 | 107 | -0.5 | 41 | 93
> NC(=O)C(CC(=O)O)NC(=O)[C@@H]1CCCCNc2c(I)cc([N+](=O)[O-])cc2C(=O)N[C@@H](CO)C(=O)NCC(=O)N1 (some centres undefined)
 : 0 | i | 0.79 | 89 | -2.0 | 9 | 108
> O=[N+]([O-])c1ccc(N2CCOCC2)cc1SCc1ccco1
 : -8 | i | 0.94 | 96 | 0.9 | -36 | 85
> O=C(Nc1cc(S(=O)(=O)N2CCCCC2)ccc1N1CCCCC1)C1CC1
 : nt | i | 0.96 | 101 | nt | nt | nt

# Going on with the list.
SMILES,PKD1 inh,HSV augment,HSV augment primary fold,RGS16-Gao,GALR2 agonist,Insulin prom inh,Insulin prom inh cell count
Cc1ccc(N2C(N)=NC(N)=NC2(C)C)c(C)c1,-10,i,0.91,98,-1.7,nt,nt
CCOC(=O)C1=C(c2ccccc2)Nc2c(c(=O)n(C)c(=O)n2C)C1c1ccc(O)c(OC)c1 (centres undefined),2,i,0.69,105,-1.1,-7,130
O=C(COc1ccccc1[N+](=O)[O-])Nc1ccc(CN2CCOCC2)cc1,6,i,1.1,97,nt,-24,141
Cn1c(CNC(=O)Cc2ccc3c(c2)OCO3)nnc1SCc1ccccc1,-4,i,1,98,-1.6,-127,96
COCc1cc(=O)[nH]c(SC)n1,nt,i,1.1,95,nt,nt,nt
Cc1oc(-c2cccs2)nc1CS(=O)CC(=O)NCc1ccc2c(c1)OCO2 (centres undefined),nt,i,1.1,93,nt,nt,nt
O=C(CNCc1ccccc1)Nc1ccccc1-c1ccccc1,-6,i,0.99,109,-0.4,-44,115
CN(C)CCCn1c(-c2ccccc2)nc(=S)c2c1CCCC2,6,i,1.5,99,-1.7,0,91
COc1cc(NC(=O)COC(=O)CC(C)(C)C)c(C)cc1[N+](=O)[O-],0,i,0.95,103,-0.6,-56,121
CC(=O)CCc1oc2ccccc2c1-c1ccccc1,nt,i,0.88,103,nt,nt,nt
Cc1cccc(C(=O)Nc2c(C#N)c(C)c(C)n2Cc2ccccc2)c1,1,i,0.88,101,-1.3,23,97
O=C(N/C=N/O)C1=NOC(CNc2ncc(C(F)(F)F)cc2Cl)C1 (centres undefined),-1,i,0.96,91,-3.6,19,103
N#Cc1c(NC(=O)c2nc3ncccn3n2)sc2c1CCCCC2,-5,i,0.83,107,-1.9,11,90
O=c1/c(=C\c2ccc(F)cc2)sc2n1CCCN=2,4,i,0.84,98,nt,nt,nt
Cc1ccc(-n2cccn2)c(CN2CCC(CO)(CCc3ccccc3)CC2)c1,0,i,0.8,101,nt,nt,nt
CCn1cc(C(=O)NCC2CCCO2)c2cc(OC)c(OC)cc2c1=O (centres undefined),-1,i,0.96,101,-0.5,nt,nt
Cc1cccc(N2CCN(C(=O)c3ccccn3)CC2C)c1 (centres undefined),-7,i,1,109,nt,-9,81
CCCCc1cc(=O)oc2cc(OCc3nn[nH]n3)c(Cl)cc12,-8,i,0.98,92,-0.5,nt,nt
Nc1cccc([N+](=O)[O-])c1,1,i,1.1,100,nt,nt,nt
CCCCn1c(SCC(=O)Nc2nnc(C)s2)nc2c1c(=O)n(C)c(=O)n2C,-11,i,0.95,99,-0.5,36,126
CC(=O)Nc1nc(C(=O)O)cs1,-2,i,0.96,147,nt,55,111
CCOc1ccc(NC(=O)CC2C(=O)N(c3ccccc3)C(=S)N2Cc2ccccn2)cc1 (centres undefined),4,i,0.98,91,-1.5,-58,54
Cc1ccc(C(=O)N/C(=C\c2ccc3c(c2)OCO3)C(=O)Nc2ccc(C(=O)O)cc2)cc1,1,i,0.92,98,nt,nt,nt
CCCCNC(=S)Nc1cccc(C(C)=O)c1,-4,i,0.9,91,-1.3,21,111
CNS(=O)(=O)c1cccc(C(=O)OCc2cc(C(C)=O)ccc2OC)c1,4,i,0.84,98,nt,nt,nt

# (cont.)
SMILES,PKD1 inh,HSV augment,HSV augment primary fold,RGS16-Gao,GALR2 agonist,Insulin prom inh,Insulin prom inh cell count
COC(=O)C(C)(C(=O)OC)c1ccc([N+](=O)[O-])cn1,12,i,1.1,97,-0.8,53,128
CCOC(=O)C1CCN(c2ncnc3cc(OC)c(OC)cc23)CC1,nt,i,0.98,98,nt,nt,nt
Clc1ccc(CNc2nc(N3CCOCC3)nc(N3CCOCC3)n2)cc1,-3,i,1,104,-1.7,-17,76
Cc1ccn(C)c(=N)c1,nt,i,0.9,99,nt,nt,nt
COc1ccc(C(=O)c2c[nH]c(C(=O)NCc3cccnc3)c2)cc1,-4,i,0.95,110,-1.9,0,86
CCN(CC)S(=O)(=O)c1ccc(C)c(NC(=O)COC(=O)c2ccc(C)c(S(=O)(=O)N3CCOCC3)c2)c1,-1,i,0.93,97,-1.5,nt,nt
Nc1c(C(=O)N/N=C/c2ccc([N+](=O)[O-])cc2)sc2nnc(-c3ccccc3)c(-c3ccccc3)c12,nt,i,1.1,88,nt,nt,nt
COc1ccc2c(c1)CC/C2=N\OC(=O)c1cccc(C)c1,1,i,0.89,100,-1.5,-35,196
Cc1c(NC(=O)CSc2nnc(Nc3ccccc3)s2)c(=O)n(-c2ccccc2)n1C,-6,i,0.99,101,-0.8,nt,nt
CCn1c2ccccc2c2cc(/C=N/NC(=O)c3cc(O)cc(O)c3)ccc21,11,i,0.85,99,nt,nt,nt
Cc1nc(C(=O)NNC(=O)c2ccccc2)c(C(F)(F)F)o1,nt,i,1.1,99,nt,nt,nt
COc1ccc(Cc2noc(CN(C)CC3CCN(Cc4ccccc4)CC3)n2)cc1OC,nt,i,1.1,100,nt,nt,nt
COc1ccccc1NC(=O)CSc1nc(O)cc(=O)[nH]1,-5,i,0.81,100,-4.3,-48,141
